Mtb hypoxia rep: reduces hypoxia-regulated biosensor signal in M. tuberculosis. 300,000 tested, 0.1% active. fluorescence inhibition, % (no concentration beside the values). M. tuberculosis hypoxia-regulated fluorescent reporter, fluorescence;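 active = 35 to 45% if threefold the growth effect, above 45% if 1.5-fold the growth effect; inactive = the rest, general growth blockers included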;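 note: wells of about 50 µL received 100 nL stock; 0% = vehicle wells and 100% = reference inhibitor wells; whole bacteria with a GFP reporter of the hypoxia response; strong numbers were not always called active; many hits fall short of the cut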
Bead autofluor: counter-screen for toxin protease inhibitors: compound fluorescence. compound autofluorescence counterscreen, microsphere flow cytometry; stronger effect = higher value. 360,000 tested, 3.1% active. fluorescence intensity (no concentration beside the values);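 active = at least 3 SD above the mean of all compounds, about 16000 in these data; inconclusive = too few beads counted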;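 note: 100 nL of 1 mM stock went into each well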
Sa RN4220 lethal: kills Staphylococcus aureus RN4220 | S. aureus RN4220 growth, OD600, 16 h | AID 1259311 | inhibition, % (test concentration not listed) | 330,000 tested, 0.33% active;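 active = z-score of -3 or lower and OD600 up to 0.18 on both plates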;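 note: plate controls were untreated cells for no effect and reference antibiotic for full effect; stock transfer was 100 nL into about 80 µL; one replicate is shown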
BJeLR viability: kills HRASV12-expressing BJeLR cells; BJeLR (HRASV12) viability, CellTiter-Glo ATP luminescence, 48 h; reference of the scale not given here; inhibition, % (concentration not given with the values); 300,000 tested, 0.17% active;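 active = replicate mean above 50%; inconclusive = above 50% but judged a plate artefact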;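 note: 50 nL library stock added to about 25 µL; numbers are from one replicate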
ugtP null kill: growth inhibition of S. aureus ugtP deletion strain; growth inhibition, % (concentration not given with the values); 330,000 tested, 0.54% active; S. aureus RN4220 ugtP deletion, OD600 growth, 16 h; some inactives read as strong as hits; AID 1259309;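 active = z-score under -3 and OD600 up to 0.15 on both plates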;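 note: plate controls were untreated wells for no effect and antibiotic for full effect; wells of about 80 µL received 100 nL stock; the first replicate is given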
PrP 5UTR inh: inhibition of PrP 5' UTR reporter expression; cell-based PrP 5' UTR mRNA reporter, plate reader; inhibition, % (no concentration beside the values); 340,000 tested, 0.35% active; AID 488862;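 active = every replicate at 50% or more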;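 note: 0 = median of the neutral control wells; tested in H4 reporter cells; numbers are from one replicate; inactives centre near -14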
Mtb hypoxia rep growth: further read-out of Mtb hypoxia rep, marked with its call; growth inhibition, %; measured here: M. tuberculosis growth (absorbance);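 0% = vehicle and 100% = reference antibiotic; read after six days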
* hit, by the source's call; ? = inconclusive; · = no result given.

Every second line gives: Mtb hypoxia rep	Mtb hypoxia rep growth	Bead autofluor	Sa RN4220 lethal	BJeLR viability	ugtP null kill	PrP 5UTR inh
1. COc1cccc(CNC(=O)C2CCC(CNc3c(N4CCC(C)CC4)c(=O)c3=O)CC2)c1 (configuration not stated)
  -1	-3	4792	2.6	-5	5	-4
2. COc1ccc(C2CC2C(C)=NOC(=O)C2CC2)cc1 (configuration not stated)
  8	10	·	6.0	·	8	·
3. COC(=O)c1ccc(/C=N/Nc2nc3ccccc3[nH]2)cc1
  ·	·	4451	·	8	·	-54
4. CSc1ccc(CN2CCC(n3nccc3NC(=O)C3CCOC3)CC2)cc1 (configuration not stated)
  4	10	5635	1.6	6	7	-17
5. O=Nc1c2cc(-c3ccccc3)[nH]nc-2c2ccccc12
  6	1	2153	15	69*	-12	0
6. O=C(CC1SC(=Nc2ccc(OC(F)F)cc2)N(CCN2CCOCC2)C1=O)Nc1ccccc1 (configuration not stated)
  2	6	4481	2.6	10	14	-3
7. CN(/N=C/c1cccnc1)c1cnn(-c2ccc(F)c(Cl)c2)c(=O)c1Cl
  ·	·	11535	·	-2	·	-20
8. CC(C)(C)C1CCC2(CC1)SCC(=O)N2c1ccccc1 (configuration not stated)
  -4	6	8275	2.9	5	0	2
9. Cc1ccc(S(=O)(=O)N2CCOCC2)cc1NC(=O)COC(=O)COc1ccccc1[N+](=O)[O-]
  14	2	3175	1.9	·	4	-24
10. CC1CN(C(C)CO)C(=O)c2cccc(NC(=O)Nc3ccc(C(F)(F)F)cc3)c2OC1CN(C)S(=O)(=O)c1ccc(Cl)cc1 (configuration not stated)
  4	10	·	8.4	·	-22	·
11. COc1ccc(C(=O)Nc2ccccc2C(=O)Nc2ccc(C(=O)O)cc2)cc1
  3	-5	4369	3.4	-1	1	2
12. CN1CC2C3C(=O)N(C)C(=O)C3[C@](Cc3ccccc3)(C1=O)N2C(=O)c1ccc(F)cc1 (some centres not stated)
  -1	4	·	-0.3	·	1	·
13. COc1ccc(C(=O)c2ccccc2)c2c(O)ccc(C(=O)c3ccccc3)c12
  4	8	2482	17	7	-27	10
14. O=C(NN=Cc1cc(Br)c(Br)o1)c1cccnc1
  -4	6	·	-3.3	·	1	·
15. COCCNS(=O)(=O)c1ccc2c(c1)n(C)c(=O)n2C
  2	0	6077	2.4	-10	1	-20
16. O=C1/C(=C/c2ccccn2)COc2ccccc21
  4	10	4258	13	4	7	-15
17. O=C(/C=C/c1ccc(F)cc1)NC(=S)NNC(=O)c1cnccn1
  -4	-3	4528	12	8	-14	18
18. CCOC(=O)c1c(S(=O)(=O)NCC(=O)Nc2ccc(F)cc2)c(C)n(C)c1C
  3	4	4209	2.7	4	4	6
19. O=C(O)CCC(=O)Nc1cccc(-c2nnc(-c3ccccc3)o2)c1
  -1	-3	3458	3.4	4	-2	1
20. Cc1ccccc1C1=N/C(=C/c2cccs2)C(=O)O1
  4	5	2010	2.8	-8	3	-14
21. Cc1onc(-c2c(Cl)cccc2Cl)c1C(=O)O/N=C(\C#N)c1ccccc1
  ·	·	5472	·	-3	·	-9
22. CCn1c(SCC(=O)Nc2ccc3c(c2)OCCO3)nnc1C1CC1
  9	4	5022	-0.1	4	-2	-17
23. Fc1ccc(NCc2n[nH]c(=S)n2Cc2ccccc2)cc1
  16	-2	2226	10	0	5	-6
24. O=C(COc1ccccc1)Nc1cc(NC(=O)COc2ccccc2)cc(C(=O)O)c1
  4	8	3684	4.0	7	11	-18
25. CCNC(=O)NS(=O)(=O)c1cnccc1Nc1cccc(Cl)c1
  13	5	2138	4.7	-1	7	-12
26. CC12CCC(C(=O)Nc3nc4ccc(Br)cc4s3)(OC1=O)C2(C)C (configuration not stated)
  -6	9	2843	-1.6	3	-3	-76
27. Cc1nn(-c2ccccc2)nc1CNC(=O)c1ncoc1-c1ccccc1
  -6	1	3751	-4.9	-11	1	-7
28. c1nc(NCC2(N3CCOCC3)CCCCC2)c2ccsc2n1
  0	10	10412	-0.4	-5	-7	-10
29. COc1ccc(OC)c(N=c2ssnc2Cl)c1
  2	1	6342	3.8	15	6	-10
30. O=C(CCn1c(=O)c2ccccc2n(Cc2cccc([N+](=O)[O-])c2)c1=O)N1CCc2ccccc2C1
  8	8	2018	4.3	8	-14	0
31. CS(=O)(=O)N1N=C(c2ccccc2)CC1c1cccs1 (configuration not stated)
  12	5	2774	7.4	13	8	-29
32. CC(C)CC(NC(=O)C1CCCCC1)C(=O)NC(C)c1ccccc1 (configuration not stated)
  1	-7	3812	1.3	-5	7	-6
33. O=C(CSc1ccc(F)cc1)NNC(=O)c1ccccc1Br
  9	4	3224	0.4	-9	10	-30
34. CCOc1ccccc1/C=N/Nc1ccccc1[N+](=O)[O-]
  ·	·	11762	·	9	·	-60
35. Cc1cc(O)c(C(C)C)cc1NS(=O)(=O)c1ccccc1
  -1	-8	3407	2.3	-1	-15	-12
36. CN(CC(=O)NC(=O)NCc1ccco1)CC(=O)Nc1ccccc1Cl
  14	7	·	1.2	13	-4	·
37. COc1ccc(C2CC(C)=C(C#N)S(=O)(=O)C2C#N)cc1 (configuration not stated)
  13	-5	3961	1.9	-2	-2	-10
38. CN=C(c1ccco1)n1c(=S)nc(-c2ccco2)n(C)c1=S
  ·	·	·	1.6	-2	-4	-14
39. Cc1cc(/C=C(\C#N)C(=O)Nc2ccc(F)cc2)c(C)n1-c1ccc(N2CCOCC2)c([N+](=O)[O-])c1
  2	10	22759*	8.1	4	-22	3
40. CCS(=O)(=O)c1ccc2c(c1)NC(=O)C(CCCl)O2 (configuration not stated)
  15	12	3236	7.0	-7	-69	-29
41. O=C(/C=C/c1cc([N+](=O)[O-])ccc1OC(F)F)NCc1ccc(F)cc1
  ·	·	4416	-2.4	3	19	-20
42. COC(=O)C1CSc2[nH]c(=O)sc2C1c1ccccc1 (configuration not stated)
  8	5	23079*	2.7	4	11	-15
43. Cc1ccc(N(C(=O)c2ccco2)C(C(=O)NC2CCCC2)c2cccnc2)cc1C (configuration not stated)
  5	2	3736	1.0	-1	2	-6
44. COc1ccc(CNC(=O)COC(=O)C(CCSC)N2C(=O)c3ccccc3C2=O)cc1 (configuration not stated)
  5	-4	2667	1.1	·	11	-19
45. c1ccc(C2CC(c3cccs3)n3nnnc3N2)cc1 (configuration not stated)
  7	10	11471	4.1	-15	-7	-3
46. COc1ccccc1OCC(=O)Nc1ccc(NC(=O)COc2ccccc2OC)cc1
  3	-8	4387	3.7	-7	7	-17
47. CCN1CCN(S(=O)(=O)c2cc3c(cc2Cl)NC(=O)CO3)CC1
  8	-2	5785	-7.3	2	-7	-14
48. CCOC(=O)c1ccccc1NC(=O)CSc1nnc(COc2ccccc2)n1CC
  11	7	8655	11	-6	-11	-26
49. Cc1cc2nc(-c3ccc(SCc4ccc(C(=O)O)cc4)nc3)[nH]c2cc1C
  0	2	3530	11	0	-4	-51
50. Cc1ccc(COc2ccc(/C=N/NC(=O)c3ccc(CN4CCOCC4)cc3)cc2)cc1
  ·	·	2386	·	2	·	-25
51. Cn1cnnc1SCc1nc(N)nc(Nc2ccccc2)n1
  -5	-1	3103	1.7	0	5	-24
52. CN=C1S/C(=C\c2ccc(N3CCCC3)c(F)c2)C(=O)N1C
  9	13	2611	4.9	1	-4	-59
53. CC(=O)Cc1nsc(NC(=O)c2ccc(COc3cccc(C)c3)o2)n1
  ·	·	3517	·	-7	·	-35
54. Cc1ccc(-c2nc(CS(=O)CC(=O)NCCN3CCCC3)c(C)o2)cc1 (configuration not stated)
  1	14	6449	-8.0	7	-6	-14
55. COc1ccc(C(CC2(O)C(=O)Nc3ccccc32)=NO)cc1 (configuration not stated)
  6	6	·	0.4	·	0	·
56. NS(=O)(=O)c1ccc(NC(=O)CN2CCCc3ccccc32)cc1
  2	9	7354	3.7	5	3	-11
57. O=c1c(F)cn(C2CCCO2)c(=O)n1Cc1ccccc1Cl (configuration not stated)
  6	0	8531	4.5	2	7	-16
58. CCOC(=O)C1CCCN(Cc2cn[nH]c2-c2ccc(F)cc2F)C1 (configuration not stated)
  -4	5	3949	0.9	-7	0	-14
59. O=C(NCc1ccccc1)c1ccc(CS(=O)(=O)c2ccccc2)o1
  18	-5	3354	0.1	-11	0	9
60. Cc1ccc(-n2nc3c(=O)n(CC(=O)NCCc4ccc(Cl)cc4)nc(C)c3c2C)cc1
  -4	1	4675	-5.7	4	-19	-10

Of the compounds above, these contain a nitro group on carbon.
Every second line gives: Mtb hypoxia rep	Mtb hypoxia rep growth	Bead autofluor	Sa RN4220 lethal	BJeLR viability	ugtP null kill	PrP 5UTR inh
9. Cc1ccc(S(=O)(=O)N2CCOCC2)cc1NC(=O)COC(=O)COc1ccccc1[N+](=O)[O-]
  14	2	3175	1.9	·	4	-24
30. O=C(CCn1c(=O)c2ccccc2n(Cc2cccc([N+](=O)[O-])c2)c1=O)N1CCc2ccccc2C1
  8	8	2018	4.3	8	-14	0
34. CCOc1ccccc1/C=N/Nc1ccccc1[N+](=O)[O-]
  ·	·	11762	·	9	·	-60
39. Cc1cc(/C=C(\C#N)C(=O)Nc2ccc(F)cc2)c(C)n1-c1ccc(N2CCOCC2)c([N+](=O)[O-])c1
  2	10	22759*	8.1	4	-22	3
41. O=C(/C=C/c1cc([N+](=O)[O-])ccc1OC(F)F)NCc1ccc(F)cc1
  ·	·	4416	-2.4	3	19	-20

Next section.
Every second line gives: Mtb hypoxia rep	Mtb hypoxia rep growth	Bead autofluor	Sa RN4220 lethal	BJeLR viability	ugtP null kill	PrP 5UTR inh
61. c1ccc(-c2nn3c(C4CCCCC4)nnc3s2)cc1
  6	8	3049	8.0	-7	-3	-4
62. O=C(Nc1ccccc1N1CCCC1)C1CCN(S(=O)(=O)c2cccc(C(F)(F)F)c2)CC1
  11	1	·	3.8	7	3	-7
63. CCOC(=O)c1ccc(N2CCN(c3ccccc3F)CC2)c(NC(=O)Nc2ccccc2)c1
  -2	0	2593	11	3	1	-12
64. COc1ccc(NC(=O)c2c(NC(=O)CNCC(C)C)sc3c2CCC3)c(OC)c1
  2	15	1999	12	·	-2	1
65. COc1ccc(CCNc2ncnc3c2c(C)c(C)n3CCCN(C)C)cc1OC
  6	-1	3783	-0.7	-9	16	-13
66. Cc1cc(NC(=O)CC2CCCC2)n(-c2nc3ccccc3[nH]2)n1
  ·	·	3055	-4.3	4	-2	-11
67. Cc1ccc(NC(=O)c2noc3c2CC(C(C)(C)C)CC3)cc1 (configuration not stated)
  4	-3	3211	3.4	27	3	-3
68. O=C1C=C(Nc2ccc(F)cc2)c2ccccc2C1=O
  ·	·	3974	47	·	47	-8
69. CCN(CC)C(=O)Cn1cc(C(=O)C(=O)N2CCc3ccccc32)c2ccccc21
  14	5	4082	1.9	1	-2	-26
70. COc1ccc(OCC(O)CNCCNc2nccc(C(F)(F)F)n2)cc1 (configuration not stated)
  14	1	4048	2.3	-6	0	1
71. N#Cc1c(C(F)(F)F)cc(-c2cccs2)nc1SCc1cccnc1
  2	-5	8173	-1.2	4	29	-24
72. CC(C)Cc1nnc(NC(=O)c2ccc3c(c2)NC(=O)C(C)S3)s1 (configuration not stated)
  -4	5	?	1.4	-7	0	16
